# Source: PubChem
# Hedgehog = Drosophila hedgehog isoform A inhibitors, primary screen, biochemical, plate reader, single concentration (AID 588832). Biochemical plate reader assay, Hedgehog inhibition; active compounds read high. 8,000 tested, under 10 active. inhibition, % at 30.3 µM; in the data active = inhibition from about 57%;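 note: 0% = neutral control wells and 100% = positive control wells; cholesterol-driven self-cleavage of fly hedgehog protein by fluorescence polarization; read one hour after cholesterol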
# Active calls of the source: *. Only part of the results is shown, so the mix of outcomes need not match the whole.
SMILES,Hedgehog
CC1(C)CC(=O)N(CC(=O)NC2CCCC2)c2ccccc2S1(=O)=O,4
Cc1ccc2c(c1)-c1c(cnn1CC(=O)N1CCCN(Cc3ccccc3F)C1)CO2,-2
O=C(Nc1nc2c(Cl)c(Cl)ccc2s1)C1CC1,5
CC(=O)NC(CCS(C)(=O)=O)C(=O)Nc1cc(C)on1 (configuration not stated),-3
CCOc1ccc(/C=N/NC(=O)c2ccccc2Cl)cc1CN1CC2CC(C1)c1cccc(=O)n1C2 (configuration not stated),4
CN1CCN(c2cc(=O)n(Cc3ccc(F)cc3)c(=O)[nH]2)CC1,12
COC(=O)c1cc(=O)n(Cc2ccc(OC)c(OC)c2)c(=Nc2ccc(F)cc2)s1,0
CCOC(=O)C1=C(C)Nc2nnnn2C1c1ccc(OC)c(Br)c1 (configuration not stated),0
O=S(=O)(NCCc1csc(-c2cccnc2)n1)c1ccc(Cl)s1,4
OCC(CBr)(CBr)CBr,16
Cc1nc2ccccc2c2oc(C(=O)N3CCc4ccccc4C3)cc12,11
Cc1cc(=O)oc2c3c(cc(OCC(=O)N4CCC[C@H]4C(=O)O)c12)OC(C)(C)CC3,10
Cc1cc(C)c(S(=O)(=O)N2CCOC2CNC(=O)C(=O)NCCc2ccc(S(N)(=O)=O)cc2)c(C)c1 (configuration not stated),2
COc1ccc2c(c1OC)C(=O)N1C2SC[C@H]1C(=O)NC1CCCCC1 (some centres not stated),5
COc1ccc2c3c([nH]c2c1)C1CC2C(CC(O)C(OC)C2C(=O)O)CN1CC3 (configuration not stated),-5
Cc1ccccc1-n1c(Cn2c(=O)sc3ccccc32)nnc1SCC(N)=O,21
COc1ccc(-n2c(Cc3cccn3C)nnc2SCC(=O)Nc2ccccc2)cc1,11
CC[C@H](C)/C=C(C)/C=C/c1cc2c(cn1)C(=O)[C@@](C)(OC(C)=O)C(O)=C2Cl,14
CCSc1nnc(NC(=O)CSc2nnc(-c3c[nH]c4ccccc34)n2CC)s1,-5
COc1ccc(-c2noc(N3CCC(C(=O)N(C)c4ccccc4)CC3)n2)cc1,7
COc1ccc(-c2cc(=O)c3c(O)c(OC)c(O)cc3o2)cc1,5
CCOC(=O)c1c(NC(C)=O)sc2c1CCN(Cc1ccccc1)C2,9
Cc1cc(=O)n2nc(N3CCCC(C(=O)NCc4ccccc4C)C3)sc2n1 (configuration not stated),4
CCC1=Nc2cc(C(=O)O)ccc2Sc2ccccc21,2
O=C(CSCC(=O)N1CCCCC1)Nc1nc(-c2ccc(Cl)s2)cs1,5
COc1ccc(NC(=O)c2cc(CC(C)C)on2)cc1OC,8
COc1ccc(C2OCC3(O)C(c4ccc(OC)c(OC)c4)OCC23)cc1OC (configuration not stated),5
Cn1cccc1Cc1nnc(SCC(=O)NCc2ccccc2)n1-c1ccc(F)cc1,21
CCOc1ccccc1C1C(C(N)=O)=C(C)Nc2nc(CCCO)nn21 (configuration not stated),6
Cc1ccc(CCNC(=O)c2cc(S(=O)(=O)N3CCCC3)cn2C)cc1,14
Cn1c(NNC(=O)CCC2CCCCC2)cc(=O)n(C)c1=O,15
O=C(c1ccc2c(=O)n3c(nc2c1)CCCCC3)N1CCN(c2ccc(Cl)cc2)CC1,0
Cc1cc2c(cc1S(=O)(=O)N1CCCC1)n(C)c(=O)c(=O)n2C,13
CNC(=O)N(C1=NCC(C)(C)S1)c1ccc(F)c(Cl)c1,-5
O=C(COc1ccc2c(-c3ccccc3)cc(=O)oc2c1)N[C@@H](Cc1c[nH]c2ccc(O)cc12)C(=O)O,5
COC(=O)c1ccc(NC(=O)C2CCCN2S(=O)(=O)c2ccc(C)cc2)cc1 (configuration not stated),29
Cc1cc(S(=O)(=O)N2CCN(c3ccc(F)cc3)CC2)c(C)s1,24
CCOC(=O)c1cccc(NC(=O)C2CCN(S(=O)(=O)c3cnc[nH]3)CC2)c1,2
Cc1ccc2c(c1)N(C(=O)CCC(=O)NCCCN1CCOCC1)CCO2,7
CCOc1ccc(CCNC(=O)c2cccc(NC3=NC4CS(=O)(=O)CC4S3)c2)cc1OCC (configuration not stated),2
CCC(C(=O)OC)n1cnc2c(nnn2-c2ccccc2)c1=O (configuration not stated),8
CCSc1nnc(Cn2c(=O)sc3ccccc32)n1-c1ccccc1C,2
Cc1c(S(=O)(=O)N2CCN(c3cccc(C(F)(F)F)c3)CC2)c(=O)n(C)c(=O)n1C,5
COc1ccc(-n2c(Cc3cc(=O)[nH]c(=O)[nH]3)nnc2SCC(=O)Nc2ccccc2)cc1,-12
CCN1CCN(C(=O)CCS(=O)(=O)c2cc3c(cc2Cl)NC(=O)CO3)CC1,15
O=S(=O)(NCCc1cn2ccccc2n1)c1ccc2c(c1)OCCO2,2
CCCc1cc(C(=O)Nc2ccc(C(C)=O)cc2)no1,-2
O=C(CN1CCOc2ccccc21)NC1CCN(Cc2ccccc2)CC1,23
Cn1cc(S(=O)(=O)NCc2cccs2)c(=O)n(C)c1=O,9
CSCC[C@H](NS(=O)(=O)c1ccc(C)cc1)C(=O)N1CCC(C(=O)N[C@@H](Cc2ccccc2)C(=O)O)CC1,5
# Further structures
SMILES,Hedgehog
COCOc1ccc(/C=C2/Oc3cc(OCOC)cc(OCOC)c3C2=O)c(OCOC)c1,5
Cc1c2cnn(CC(=O)NCCN3CCOCC3)c(=O)c2c(C)n1Cc1ccc(F)cc1,5
CN(C)CCNC(=O)c1ccc(CS(=O)(=O)c2c(Cl)cccc2Cl)o1,12
COc1ccc(OC)c(-n2c(SCC(=O)Nc3cc(C)on3)nnc2-c2c[nH]c3ccccc23)c1,4
Cc1ccc2c(cnn2C(=O)CCC(=O)NC2CCCC2)c1,4
COc1ccc(/C=C\c2onc(C)c2S(=O)(=O)N2CCC(C(=O)NCCC(C)C)CC2)cc1,6
COc1ccc2[nH]c3c(c2c1)CCN1C(=O)N([C@@H](C)C(=O)NCCc2ccc(F)cc2)C(=O)[C@]31C,5
O=c1c(-c2c(O)cc(O)c3c(=O)cc(-c4ccc(O)cc4)oc23)c(-c2ccc(O)cc2)oc2cc(O)cc(O)c12,8
COc1cc(O)cc2cc3c(c(O)c12)C(=O)CC(C)(O)O3 (configuration not stated),3
Cc1nn(C)c(C)c1S(=O)(=O)N1CCCC(C(=O)N2CCN(c3ccccc3)CC2)C1 (configuration not stated),5
O=C(COc1ccc2cc(-c3ccccc3)c(=O)oc2c1)NCC1CCC(C(=O)O)CC1 (configuration not stated),-4
O=C(O)c1cccc(Br)c1,9
C/C(=C\COc1cc(=O)[nH]c2ccccc12)CCC(O)C(C)(C)O (configuration not stated),5
CCOC(=O)CSC(C)C(=O)Nc1nnc(C(C)C)s1 (configuration not stated),-2
CC(C)(Oc1ccc(Cl)cc1)C(=O)OCn1nnc2ccccc2c1=O,3
CCc1ccc(NC(=O)CSc2nnc(Cc3cccn3C)n2-c2ccc(F)cc2)cc1,33
COc1ccc(CNC(=O)Cn2cc3c(n2)CCCCC3)cc1,17
Cc1nc2ccccc2c2oc(C(=O)NCCCN3CCCC3=O)cc12,17
CCCSc1nnc(Cn2c(=O)sc3ccccc32)n1C,9
CN(C(=O)COc1cc(=O)n(C)c2ccccc12)c1ccc(Cl)cc1,20
CN1C(C(=O)Nc2cccc(O)c2)=CC(c2cccs2)=NS1(=O)=O,7
Cc1ccc(NC(=O)CSc2nc3ccccc3nc2N2CCOCC2)c(C)c1,7
CN(CC(CC(=O)Nc1nncs1)c1ccccc1)S(=O)(=O)c1ccccc1 (configuration not stated),17
CCS(=O)(=O)Nc1cccc(-c2nc3cccnc3s2)c1C,7
CCC1(O)C(=O)OCc2c1cc1n(c2=O)Cc2cc3cc(O)ccc3nc2-1 (configuration not stated),7
COc1ccc(C)cc1Nc1cc(C)nc2nc(C)nn12,21
COc1cc2c(cc1OC)C(C)=NCC2,5
COc1ccc(CCNC(=O)CCCn2nc(C)n3ccnc3c2=O)cc1OC,4
CSCC[C@H](NC(=O)OC(C)(C)C)C(=O)N1CCC(C(=O)N[C@@H](C)C(=O)NCc2ccc(F)cc2)CC1,5
NS(=O)(=O)c1ccc(CCNC(=O)C(=O)NCC2OCCN2S(=O)(=O)c2ccc(Cl)cc2)cc1 (configuration not stated),3
COc1ccc(C2N(c3ccc(F)cc3)C(=O)C3CCCN32)cc1 (configuration not stated),12
COc1ccc(-c2noc(N3CCC(C(=O)NCCCN4CCCCC4)CC3)n2)cc1,11
CCOC(=O)N1CCC(NC(=O)CSCc2nc(-c3sccc3C)oc2C)CC1,7
CCOC(=O)c1ccc(NC(=O)CSc2nnc(Cn3c(=O)sc4ccccc43)n2C)cc1,21
CC1CC(C)CN(c2nc3c(c(=O)n(C)c(=O)n3C)n2CCSc2ncccn2)C1 (configuration not stated),0
Cc1ccc(N2C(=O)c3ccccc3C2Nc2ccccc2)nc1 (configuration not stated),4
CC(=O)NC(CCS(C)(=O)=O)C(=O)Nc1cc(Cl)ccc1Cl (configuration not stated),19
COc1ccc(OC)c2c1CC(C)(C)NC2=O,8
Cc1cc2c(cc1S(=O)(=O)Nc1cccc(C)c1C)OCC(=O)N2,10
CCOc1ccc(C2CC(c3cccc(C)c3)n3nc(N)nc3N2)cc1 (configuration not stated),-4
COc1ccc(N(CC(=O)N2CCc3ccccc32)S(=O)(=O)c2c(C)nn(C)c2C)cc1,7
COc1ccc(OC)c(C2CC(=O)N3CN(c4ccccc4)CSC3=C2C#N)c1 (configuration not stated),8
O=C(Cn1nc(Cc2cccnc2)c2ccccc2c1=O)Nc1ccc2c(c1)OCO2,1
COc1cc(/C=C(\NC(=O)c2ccccc2)C(=O)NC(C(=O)O)c2ccccc2)cc(OC)c1OC (configuration not stated),7
O=S(=O)(Cc1ccccc1)N1CCn2c(nc3ccccc32)C1,2
COc1ccc(OC)c(C2CC(=O)N3CN(c4ccc(C)c(Cl)c4)CSC3=C2C#N)c1 (configuration not stated),8
COc1ccc(CCNC(=O)[C@H](C)N2C(=O)N3CCc4c([nH]c5ccccc45)[C@@]3(C)C2=O)cc1OC,7
O=C(NCc1ccccn1)c1cc2ccccn2n1,10
COc1ccc(Cl)cc1S(=O)(=O)N1CCN(C)CC1,11
CC(C)(C)C(=O)NCCc1nc2ccccc2n1CC(=O)c1ccccc1,19
# Other compounds follow.
SMILES,Hedgehog
COc1ccc(-c2oc3cc(OC)c(O)c(OC)c3c(=O)c2OC)cc1O,3
Cc1cc2cc(CNC(=O)c3ccc(S(=O)(=O)N4CCOCC4)cc3)ccc2n1C,9
Cc1ccc(C(=O)NCc2ccccn2)cc1NC1=NC2CS(=O)(=O)CC2S1 (configuration not stated),3
Cc1ccc(NC2c3ccccc3C(=O)N2CCN2CCOCC2)cc1 (configuration not stated),24
O=C(Cn1ncc2c(=O)oc3ccccc3c21)NCCc1ccsc1,5
COc1ccc(C(=O)c2oc3ccc(Br)cc3c2NC(C)=O)cc1,0
COc1ccc(-c2cc(=O)c3ccc(O)cc3o2)cc1OC,2
CCOc1ccccc1N1CSC2=C(C#N)C(c3c(OC)ccc4ccccc34)CC(=O)N2C1 (configuration not stated),11
CCOC(=O)N1CCC(NC(=O)C2CCCN(C(=O)c3cc4sccc4n3C)C2)CC1 (configuration not stated),9
CCOc1ccc2ncc(C(=O)c3ccc(OC)cc3)c(N3CCN(CC)CC3)c2c1,-5
CCOC(=O)C1CCN(C(c2cccs2)c2sc3nc(C)nn3c2O)CC1 (configuration not stated),8
O=C(NCc1cccnc1)C(=O)NCC1OCCN1S(=O)(=O)c1ccccc1 (configuration not stated),5
Cc1ccc2c(c1)N(CC(=O)NC(C)CCc1ccccc1)C(=O)c1cccnc1O2 (configuration not stated),5
O=C(Nc1nnc(S(=O)(=O)N2CCOCC2)s1)c1ccc(Cl)cc1,5
CCN1CCN(C(=O)CCCn2c(C)c3cnn(-c4ccccc4)c(=O)c3c2C)CC1,2
CC(CCc1ccccc1)NC(=O)CN1CCOc2ccccc21 (configuration not stated),21
CCOC(=O)C1=C(C)Nc2nc(SCc3cccnc3)nn2C1c1ccc(OC)cc1 (configuration not stated),6

# Compounds listed so far with two or more sulfur atoms (21):
SMILES,Hedgehog
O=S(=O)(NCCc1csc(-c2cccnc2)n1)c1ccc(Cl)s1,4
Cc1cc(C)c(S(=O)(=O)N2CCOC2CNC(=O)C(=O)NCCc2ccc(S(N)(=O)=O)cc2)c(C)c1 (configuration not stated),2
Cc1ccccc1-n1c(Cn2c(=O)sc3ccccc32)nnc1SCC(N)=O,21
CCSc1nnc(NC(=O)CSc2nnc(-c3c[nH]c4ccccc34)n2CC)s1,-5
O=C(CSCC(=O)N1CCCCC1)Nc1nc(-c2ccc(Cl)s2)cs1,5
Cc1cc(S(=O)(=O)N2CCN(c3ccc(F)cc3)CC2)c(C)s1,24
CCOc1ccc(CCNC(=O)c2cccc(NC3=NC4CS(=O)(=O)CC4S3)c2)cc1OCC (configuration not stated),2
CCSc1nnc(Cn2c(=O)sc3ccccc32)n1-c1ccccc1C,2
Cn1cc(S(=O)(=O)NCc2cccs2)c(=O)n(C)c1=O,9
CSCC[C@H](NS(=O)(=O)c1ccc(C)cc1)C(=O)N1CCC(C(=O)N[C@@H](Cc2ccccc2)C(=O)O)CC1,5
CCOC(=O)CSC(C)C(=O)Nc1nnc(C(C)C)s1 (configuration not stated),-2
CCCSc1nnc(Cn2c(=O)sc3ccccc32)n1C,9
CN1C(C(=O)Nc2cccc(O)c2)=CC(c2cccs2)=NS1(=O)=O,7
CN(CC(CC(=O)Nc1nncs1)c1ccccc1)S(=O)(=O)c1ccccc1 (configuration not stated),17
CCS(=O)(=O)Nc1cccc(-c2nc3cccnc3s2)c1C,7
NS(=O)(=O)c1ccc(CCNC(=O)C(=O)NCC2OCCN2S(=O)(=O)c2ccc(Cl)cc2)cc1 (configuration not stated),3
CCOC(=O)N1CCC(NC(=O)CSCc2nc(-c3sccc3C)oc2C)CC1,7
CCOC(=O)c1ccc(NC(=O)CSc2nnc(Cn3c(=O)sc4ccccc43)n2C)cc1,21
Cc1ccc(C(=O)NCc2ccccn2)cc1NC1=NC2CS(=O)(=O)CC2S1 (configuration not stated),3
CCOC(=O)C1CCN(C(c2cccs2)c2sc3nc(C)nn3c2O)CC1 (configuration not stated),8
O=C(Nc1nnc(S(=O)(=O)N2CCOCC2)s1)c1ccc(Cl)cc1,5
